Source: PubChem BioAssay
GIV-Gai inh: blocks GIV peptide binding to rat Galpha-i3; AID 1224905; Galpha-i3/FITC-GIV peptide fluorescence polarization, 90 min; active compounds read low; scaled: aluminum fluoride 0%, vehicle 100%; P08753; percent of control (FP), % (concentration not given with the values); actives 0.42% (n = 210,000);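 active = replicate mean at 85% of control or lower, very high polarization wells dropped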;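 note: wells of about 15 µL received 100 nL stock; the first replicate is given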
Target sequence (P08753 whole entry, looked up): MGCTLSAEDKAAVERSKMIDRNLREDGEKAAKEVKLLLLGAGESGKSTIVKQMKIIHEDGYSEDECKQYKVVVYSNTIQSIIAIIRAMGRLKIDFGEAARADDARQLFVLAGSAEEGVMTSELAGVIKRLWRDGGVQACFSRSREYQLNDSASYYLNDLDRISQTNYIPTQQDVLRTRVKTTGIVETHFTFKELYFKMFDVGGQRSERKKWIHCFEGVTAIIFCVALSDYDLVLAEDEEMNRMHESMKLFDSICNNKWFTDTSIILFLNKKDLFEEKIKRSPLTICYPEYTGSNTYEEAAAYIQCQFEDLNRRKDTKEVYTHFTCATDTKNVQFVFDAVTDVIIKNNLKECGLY
Sa growth inh: S. aureus growth inhibition; S. aureus RN4220 growth, OD600, 20 h, 42 °C; active compounds read low; relative growth, % (test concentration not listed); actives 0.53% (n = 170,000);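 active = growth at 42 °C up to 50% and 20 or more points under that at 30 °C, or under 10% at both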;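 note: 300 nL library stock went into each well; scaled to the means of positive and negative controls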
HCMV NEC inh: cytomegalovirus nuclear egress complex inhibition | HTRF UL50-UL53 interaction, normalized percent inhibition | inhibition, % (no concentration beside the values) | actives 0.15% (n = 190,000) | AID 1918969;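 active = both replicates at 50% or more, plus weaker picks with an unusually low signal ratio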;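 note: stock transfer was 100 nL into about 20 µL; 0% = negative control wells and 100% = wells with untagged competitor protein; inactives centre near -12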
Sa growth inh second temp: second read-out of Sa growth inh, no call of its own (marks repeat the call); relative growth, %; measured here: growth at 30 °C;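 optical density after 20 h as mean of two plates; 100% = untreated growth and lower means inhibition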
Numbers without * were called inactive; / = no result given; & = joins results of further samples. Compounds as they come (roughly 0.83% active in at least one column).

compound	GIV-Gai inh	HCMV NEC inh	Sa growth inh second temp	Sa growth inh
O=C(CN1CCN(Cc2ccccc2)C1=O)NCCc1ccccc1	103	/	86	114
CCN1C(=O)S/C(=C/c2cc(C)n(-c3ccc(S(N)(=O)=O)cc3)c2C)C1=O	110	-31	89	112
Cc1ccc(C)c(NC(=O)c2oc(=O)c3ccccc3c2-c2ccccc2)c1	103	-22	84	91
O=C(Nc1ccccc1)OC1CCCCC1	/	-8	59	88
CCOc1cc(N2CCOCC2)c(OCC)cc1NC(=O)CN1c2ccccc2CC1C (stereo not given)	/	-2	102	95
CC(=O)c1cccc(NC(=O)C2CCN(S(=O)(=O)c3ccc4c(c3)CCCN4C(C)=O)CC2)c1	102	/	80	112
c1ccc2nc3c(nc2c1)c1ccccc1n3CCN1CCOCC1	104	/	73	114
Cc1ccc(C)c(C(=O)CSc2nc(-c3ccccc3)nc3c2CCCC3)c1	105	-24	86	114
CN(CCO)c1ccc(-c2nc(-c3ccccc3)c(-c3ccccc3)[nH]2)cc1	/	9	77	58
COc1ccc(N(Cc2cscn2)S(=O)(=O)c2cc(C)ccc2C)cc1	/	3	91	127
O=C(CCCN1C(=O)C(c2ccccc2)Oc2cccnc21)Nc1ccccc1C(F)(F)F (stereo not given)	105	/	93	104
COc1ccc(C(=O)NCc2ccco2)c(OC)c1	107	-19	71	99
CCCCn1c(NCc2cc(Cl)ccc2O)nc2ccccc21	107	/	95	123
Cn1cnc2c(=O)oc3ccc(S(=O)(=O)N4CCc5ccccc5C4)cc3c21	103	8	97	87
Cc1ccc(N2CN=C(c3ccccc3)NC2=S)cc1	102	-6	92	99
N#C/C(=C\c1ccc(-c2ccc(Br)cc2)o1)C(=O)OC1CCCCC1	107	14	71	89
O=C(Nc1ccc(Cn2cnc(-c3nc(-c4cccc(F)c4)no3)c2)cc1)c1ccccc1F	106	-32	/	/
Cc1ccc(OCC(=O)Nc2ccc(S(=O)(=O)Nc3cc(C)nc(C)n3)cc2)c(Br)c1	106	12	80	91
COc1ccc(-n2c(SCC(=O)NC3CCCCC3)nc3c([nH]c4ccccc43)c2=O)cc1	98	/	88	103
Nc1nc(COC(=O)c2ccc3ccccc3c2O)nc(Nc2ccccc2)n1	/	-22	96	84
COc1ccc(-c2onc(C)c2C)cc1S(=O)(=O)NC1CCN(Cc2ccccc2)CC1	103	-1	79	96
Cc1ccccc1-n1c(SCc2nnc(-c3cc4c(s3)CCCC4)o2)nnc1N1CCOCC1	/	-21	84	102
CC(C)CC(=O)Nc1ccc2ccccc2c1	99	-16	76	111
O=C(c1ccc(N2C(=O)CCS2(=O)=O)cc1)N1CCc2ccccc21	104	-22	/	/
Cc1ccc(C)c(SCC(=O)OCC(=O)c2ccc(F)cc2)c1	/	-28	87	127
Cc1ccc(Cl)cc1N1CCN(C(=O)c2cc(S(=O)(=O)N3CCCCCC3)cn2C)CC1	104	/	91	103
COc1cc(C2CC(=O)Nc3cc4c(cc32)OCCO4)cc(OC)c1O (stereo not given)	102	-1	95	76
COCCn1nnnc1CN(Cc1ccco1)Cc1cc2cc(OC)ccc2[nH]c1=O	111	-17	79	71
CCCCC1CCC(C(=O)Nc2nonc2-c2ccc(OCC)cc2)CC1 (stereo not given)	108	4	92	103
Cn1c(SCC(=O)c2ccc(F)cc2)nnc1C(O)c1ccccc1 (stereo not given)	100	-3	97	104
CCOC(=O)c1ccc2c(c1)N(Cc1cc(=O)n3ccccc3n1)C(=O)c1ccccc1S2	99	-9	/	/
Cc1cc(C)n(C(C)n2nc(C)cc2C)n1	104	-25	93	105
COc1ccccc1NC(=O)CSc1nnc(NC(=O)Nc2ccc(C)cc2)s1	98	/	77	128
COc1ccc(-c2nnc(N3CCC(C)CC3)c3ccccc23)cc1	102	-15	/	/
CCOC(=O)CSC1=C(C#N)C(c2ccccc2Cl)C(C(=O)Nc2ccccc2OC)=C(C)N1 (stereo not given)	/	-7	66	82
CC(C)N1CNc2nc3ccccc3n2C1	103	-16	84	89
O=S1(=O)N=C(Nc2nncs2)c2ccccc21	100	-9	97	100
CCOc1ccccc1CNCc1c(C(=O)O)c(C)n(Cc2ccc(C)cc2)c1C	107	-13	91	104
Cc1cccc(CNC(=O)c2cc3cc(S(=O)(=O)N4CCCCC4)ccc3n2C)c1	99	/	88	81
Cc1cccc(N2CCN(C(=O)CCc3c(C)nc4c(c3C)c(=O)n(C)c(=O)n4C)CC2)c1C	106	-22	89	102
COC(=O)c1c(NC(=O)c2ccc(C(C)(C)C)cc2)sc2c1CCC(C)C2 (stereo not given)	106	21	98	101
Cc1cc(C(=O)c2cccs2)c(N)s1	168	-55	63	90
Cc1c2c(=O)n(-c3ccccc3)[nH]c2cc(=O)n1CCc1c[nH]c2ccccc12	101	-53	/	/
Cc1ccccc1C(=O)Nc1cccc(-c2nc(-c3ccccc3)no2)c1	108	-4	/	/
CCOc1cc(/C=C2/SC(=O)NC2=O)ccc1OCC(=O)O	108	/	84	86
Cc1cc(C)c(NC(=O)Cn2nc(-c3ccc(C)c(S(N)(=O)=O)c3)c3c(c2=O)CCCC3)c(C)c1	110	-22	/	/
CCOc1ccc(-n2nc3ccc(NC(=O)c4ccc(OC)c(Cl)c4)cc3n2)cc1	104	/	91	95
COc1cc(/C=C2\C(=O)NC(=O)N(c3ccc(C)cc3)C2=O)cc([N+](=O)[O-])c1O	105	-59	/	/
CC1CCC(COC(=O)CN2CCCCC2)C(C)C1 (stereo not given)	96	-22	86	92
COc1ccc(-c2cnc3c(-c4ccccc4)c(C)nn3c2N)cc1OC	104	-22	/	/
COc1ccc(C(=O)/C(C)=N/O)cc1	/	-14	91	78
O=C(O)c1ccccc1-c1ccc(C(F)(F)F)cc1	/	-14	97	123
CCc1ccccc1NC(=O)Nc1cc2sccc2n1CC	101&105	-3&-24	93	95
Cn1c(=O)c2c(nc(SCc3ccccn3)n2C)n(C)c1=O	100	-12	/	/
CCn1c(SCC(=O)N(C2CCCCC2)C2CCCCC2)nnc1C(C)C	97	0	83	95
COc1ccc2oc(=O)c(-c3cnc(C)s3)cc2c1	101	/	91	112

(cont.)
compound	GIV-Gai inh	HCMV NEC inh	Sa growth inh second temp	Sa growth inh
O=C1COc2cc(S(=O)(=O)N3CCCC(C(=O)NC4CCCC4)C3)c(Cl)cc2N1 (stereo not given)	101	-16	/	/
OC(Cn1cncn1)c1ccc(Br)cc1Br (stereo not given)	/	-23	95	101
COc1ccc(-n2nc3c(c2NC(=O)C(=O)NCc2ccccc2)CSC3)cc1	102	/	71	179
Cc1ccc(S(=O)Cc2ccc(C(=O)N3CCN(C(=O)c4ccco4)CC3)o2)cc1 (stereo not given)	101	/	85	101
CNS(=O)(=O)c1cc2c3c(cccc3c1)C(=O)NC2=O	105	-114	84	105
COc1ccc(-c2nnc3n(Cc4ccccc4)c(=O)c4ccccc4n23)cc1	102	/	84	102
O=S(=O)(c1ccccc1)c1nnn2c1nc(NC1CCCCC1)c1sccc12	104	/	97	111
Cc1cccc(CN2CCC(CNC(=O)Cn3ncc4c([nH]c5ccc(C)cc54)c3=O)CC2)c1	111	/	97	116
CCOC(=O)C1CCN(C(=O)Cc2ccc(C)cc2)CC1	102	-25	90	94
COC(=O)c1sccc1S(=O)(=O)N(CC(=O)NCc1ccccc1)c1ccc(C)c(C)c1	96	/	94	92
O=c1cc(O)c(-c2cccc(C(F)(F)F)c2)c(Cl)[nH]1	100	-12	/	/
Cc1[nH]c2ccccc2c1C(=O)C(=O)NC1CC(=O)N(c2ccccc2)C1 (stereo not given)	105	/	86	105
O=C(NC1(C(F)(F)F)C(=O)Nc2c1c(=O)[nH]c(=O)n2-c1ccccc1)c1ccccc1 (stereo not given)	104	-12	95	103
FC(F)(F)COc1ccc(-c2n[nH]c(=S)o2)cn1	102	-17	88	84
Cc1ccc(S(=O)(=O)N2CCCCC2)cc1-n1c(C)cc(C2N=C(N)Nc3nc4ccccc4n32)c1C (stereo not given)	/	-7	18	85
NCCNC(=O)Cc1ccc(O)cc1	106	0	91	88
CCn1c2ccccc2c2cc(CNCC(C)O)ccc21 (stereo not given)	106	/	73	129
Cn1c(=O)c2sccc2n2c(SCc3cccc(Cl)c3)nnc12	100	-22	/	/
CCc1ccc(-n2c(=O)c3sc4ccccc4c3n(CC(=O)NC3CCCC3)c2=O)cc1	104	-33	88	102
CCn1c(=O)c2cc(C(=O)N3CCN(c4cccc(Cl)c4)CC3)sc2c2ccccc21	103	-8	79	102
COC(=O)c1ccc(NC(=O)CC2C(=O)N(c3ccccc3)C(=O)N2Cc2cccs2)cc1 (stereo not given)	109	/	81	115
Clc1ccc2nc(N3CCCC3)sc2c1	98	-35	80	101
COc1cccc2c1O/C(=N\O)C(C(=O)Nc1cccc(Br)c1)C2 (stereo not given)	100	-13	97	91
CC(=Nc1cccc(Br)c1)c1sc2ccccc2c1O	56*	-32	/	/
O=C(CSc1nc2c(sc3ccccc32)c(=O)n1Cc1ccccc1)NCCC1=CCCCC1	101	/	82	88
CCOC(=O)C1CCN(S(=O)(=O)c2ccc3c(c2)N(C)C(=O)CC(=O)N3C)CC1	107	/	91	131
CC(CC(=O)c1cccs1)CC(=O)c1cccs1	97	-16	83	94
CC(C)C(C)(C#N)NC(=O)Cn1cc(Br)ccc1=O (stereo not given)	/	-6	85	90
COc1cc2c(=O)n(Cc3ccc(C(=O)NC4CC4)cc3)c(=O)n(Cc3ccc(F)cc3Cl)c2cc1OC	112	-8	/	/
CC1CCN(C(=O)c2ccc3c(c2)C(=O)N(CCC2=CCCCC2)C3=O)CC1	105	/	91	99
CSc1sc(C#N)c2c1C(=O)CC(c1ccc(C)cc1)C2 (stereo not given)	106	-52	81	96
CCCCN1Cc2c(n(CC(=O)c3ccc(OC)cc3)c3cc(-c4ccccc4)nn3c2=O)C1=O	100	-13	90	89

4 entries from above, as labelled records:
> Cc1cc(C)n(C(C)n2nc(C)cc2C)n1
  GIV-Gai inh = 104 | HCMV NEC inh = -25 | Sa growth inh second temp = 93 | Sa growth inh = 105
> COc1ccccc1NC(=O)CSc1nnc(NC(=O)Nc2ccc(C)cc2)s1
  GIV-Gai inh = 98 | HCMV NEC inh = / | Sa growth inh second temp = 77 | Sa growth inh = 128
> COc1ccc(-c2nnc(N3CCC(C)CC3)c3ccccc23)cc1
  GIV-Gai inh = 102 | HCMV NEC inh = -15 | Sa growth inh second temp = / | Sa growth inh = /
> CCOC(=O)CSC1=C(C#N)C(c2ccccc2Cl)C(C(=O)Nc2ccccc2OC)=C(C)N1 (stereo not given)
  GIV-Gai inh = / | HCMV NEC inh = -7 | Sa growth inh second temp = 66 | Sa growth inh = 82

Carrying on.
compound	GIV-Gai inh	HCMV NEC inh	Sa growth inh second temp	Sa growth inh
O=C1COc2cc(S(=O)(=O)CCC(=O)N3CCCCC3)c(Cl)cc2N1	99	-20	80	97
O=C(O)C1CCN(c2ncnc3scc(-c4ccccc4)c23)CC1	101	/	91	95
Cc1ccc(S(=O)(=O)N2Cc3ccccc3C2)cc1	106	/	90	124
CCC1COC(c2cccn2Cc2ccc(F)cc2Cl)=N1 (stereo not given)	104	4	81	99
CCC(CC)NC(=O)Cc1ccccc1OC	/	-17	86	83
CCOC(=O)NC(=O)Cn1nnc(-c2ccccc2C)n1	/	-9	90	94
CCCC(=O)n1c(=O)oc2cc(Br)ccc21	/	-13	59	82
C/C(=N\N=C(c1ccccc1)c1ccccc1)c1ccco1	/	-28	93	101
Cc1ccc(CNC(=O)c2nc3c(nnn3Cc3ccco3)c(=O)[nH]2)cc1	103	/	49	82
CCCSc1nnc2c(n1)OC(C)=Nc1ccc(Br)cc1-2	113	-6	88	88
CNC(=O)c1nc(-c2ccccc2)oc1C	98	-3	67	113
COC(=O)CC1=CC(=O)N(CC(=O)Nc2ccc3c(c2)OCO3)c2cc(C)c(C)cc2N1	111	-43	/	/
Cc1cc(C)n2nc(SCc3ccc(Cl)cc3)nc2n1	/	-18	84	102
CSc1ccccc1NC(=O)CO/N=C(\C)c1cc2ccccc2o1	/	-7	100	94
CCn1cnc(S(=O)(=O)N2CCCC(C(=O)Nc3nc(C)cs3)C2)c1 (stereo not given)	102	0	/	/
CCOC(=O)c1cnc(SCC(=O)Nc2ccc(C)cc2C)nc1N	102	-18	/	/
Cc1nc(N2CCOCC2)cc(N2CCN(C(=O)c3ccc(Br)o3)CC2)n1	97	-33	/	/
COc1ccc(C(=O)NCC(c2ccco2)S(=O)(=O)c2ccccc2)cc1 (stereo not given)	98	/	85	127
CCCCNC(=O)c1ccc(NS(=O)(=O)CC)cc1	104	-27	97	111
CC1CN(Cc2cc(O)c(CN3CC(C)OC(C)C3)cc2O)CC(C)O1 (stereo not given)	103	-18	79	103
Cc1ccc(Nc2nc3ccccc3n3cnnc23)c(Cl)c1	99	-18	/	/
N#Cc1ccc(COC(=O)c2ccccc2-c2ncc(-c3ccccc3)o2)cc1	/	-5	94	118
Cc1nn(CCC(=O)NCc2ccccc2Br)c(=O)c2noc(C)c12	104	-32	/	/
